High-throughput results: PubChem BioAssay, Broad Institute
DUX4 txn inh – blocks DUX4-driven transcriptional activation; 293T-iDUX4 ZSCAN4-Gaussia luciferase reporter, 24 h; hits give low values; activity change, negative = inhibition, % (concentration not given with the values); actives 0.8% (n = 37,000);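 active = -10% or lower and over 25 points stronger than a control reporter; inconclusive = -10% or lower with a smaller gap; inactive = above -10%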;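 note: 0% = median of neutral control wells and -100% = median of positive control wells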
DUX4 txn inh difference – recorded beside DUX4 txn inh, whose call it bears; Gaussia minus Italica difference, %; measured here: selective DUX4 reporter inhibition;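 worked out from the two reporters; negative = selective loss of the DUX4 reporter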
DUX4 txn inh control – second read-out of DUX4 txn inh, no call of its own (marks repeat the call); activity change, negative = inhibition, %; measured here: Italica tet-on control reporter;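 0 = neutral control and -100 = positive control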
* marks the source's active call; other numbers are inactive results; u = inconclusive; x = no result given; & = joins results of further samples; ! = not active in a repeat.

DUX4 txn inh,SMILES,DUX4 txn inh difference,DUX4 txn inh control
2,C[C@H](CO)N1C[C@H](C)[C@@H](CN(C)C(=O)Nc2ccc(-c3ccccc3)cc2)OCc2ccccc2-c2ccccc2C1=O,-3,4.8
1,CCCC#Cc1ccc([C@H]2[C@@H](CO)N3C(=O)CN(S(=O)(=O)c4ccccc4C)C[C@@H]23)cc1,1,-0.5
18,Cn1cnc(S(=O)(=O)N2CC[C@@H]3[C@H](CO)Nc4ccc(C#Cc5ccc(F)cc5)cc4[C@@H]32)c1,17,0.7
2,CO[C@H]1CN(C)C(=O)c2cc(NS(C)(=O)=O)ccc2OC[C@H](C)N(Cc2nccs2)C[C@H]1C,2,-0.4
1,O=C(NCCc1ccncc1)[C@@H]1[C@@H](CO)[C@@H]2Cn3c(ccc(C4=CCCCC4)c3=O)[C@H]1N2CC1CC1,1,0.6
9,CN1c2ccc(Br)cc2[C@H]2[C@H](CCN2C(=O)C2CCC2)[C@H]1CO,8,0.2
5,CO[C@H](CN(C)S(=O)(=O)c1ccc(F)cc1)[C@@H](C)CN([C@@H](C)CO)S(=O)(=O)c1cccc(Cl)c1,0,5.6
4,CN(C)CCCNC(=O)[C@@H]1[C@@H](CO)[C@@H]2Cn3c(ccc(-c4cccc(C(=O)N(C)C)c4)c3=O)[C@H]1N2,0,3.3
0,CCCC(=O)N1C[C@H]2[C@@H](c3ccccc31)[C@@H](CO)N2C(=O)CC1CC1,2,-2.1
0,CC(C)NC(=O)N1[C@@H](CO)[C@@H]2c3ccccc3N(C)C[C@@H]21,-3,3.2
0,O=C(NCc1ccccc1)[C@H]1[C@H](CO)[C@H]2Cn3c(ccc(-c4cccnc4)c3=O)[C@H]2N1Cc1cocn1,-3,3.3
-35*,C[C@@H]1CN([C@@H](C)CO)C(=O)c2c(c3ccccc3n2C)-c2ccccc2CO[C@@H]1CN(C)C(=O)Nc1cccc(Cl)c1Cl,-25*,-9.1*
4,COC(=O)C[C@H]1CC[C@H]2[C@H](COc3ccc(NC(=O)c4ccc(F)c(F)c4)cc3C(=O)N2C)O1,4,0.1
-6,COc1ccccc1CNC(=O)C[C@H]1C[C@H]2c3cc(NC(=O)C4CCC4)ccc3O[C@H]2[C@H](CO)O1,1,-6.7
-1,C[C@@H]1CN([C@H](C)CO)C(=O)c2cc(NC(=O)CCN3CCOCC3)ccc2O[C@@H]1CN(C)Cc1ccc(C(F)(F)F)cc1,2,-2.3
6,COc1cccc(C(=O)Nc2ccc3c(c2)OC[C@@H](C)N(C)C[C@@H](C)[C@H](OC)CN(C)C3=O)c1,5,0.7
u,CC(C)C#Cc1ccc([C@H]2[C@@H](CO)N3CCCCN(C(=O)c4ccc(F)cc4)C[C@@H]23)cc1,x,x
-2,N#C[C@@H]1[C@H](c2ccc(C#CC3CCCCC3)cc2)[C@H](CO)N1C(=O)c1cccc(F)c1,-2,0.1
-5,C[C@@H]1CN([C@@H](C)CO)S(=O)(=O)c2ccc(-c3cccc(F)c3)cc2O[C@H]1CN(C)S(=O)(=O)c1ccccc1,0,-4.9
-4,O=C(c1cccnc1)N1CC(=O)N2[C@H](CO)[C@H](c3ccc(C#CCC4CCCC4)cc3)[C@@H]2C1,1,-4.4
-1,O=C(N[C@@H]1CC[C@H](CCNC(=O)C2CCOCC2)O[C@@H]1CO)c1ccccn1,-13,12
-4,CCCC(=O)Nc1ccc2c(c1)OC[C@@H](C)N(Cc1cncnc1)C[C@H](C)[C@H](OC)CN(C)C2=O,-6,1.9
2,O=C(C[C@H]1C[C@@H]2c3cc(NC(=O)Nc4ccc(C(F)(F)F)cc4)ccc3O[C@@H]2[C@H](CO)O1)NCC1CC1,0,2.5
u,O=C(C[C@@H]1CC[C@@H]2[C@H](COC[C@H](O)CN2Cc2ccc(Oc3ccccc3)cc2)O1)Nc1nccs1,x,x
7,COCC#Cc1ccc([C@H]2[C@@H](CO)N3C(=O)CN(C(=O)C4CCCCC4)C[C@@H]23)cc1,-8,15
10,CN1CCN(C(=O)C[C@@H]2CC[C@@H]3[C@H](COC[C@@H](O)CN3CC3CCCCC3)O2)CC1,6,4.0
-3,COc1cccc(NC(=O)Nc2ccc3c(c2)C(=O)N(C)[C@H]2CC[C@H](CC(=O)O)O[C@@H]2CO3)c1,-4,1.4
-5,O=C(c1ccc2c(c1)OCO2)N1CC(=O)N2[C@H](CO)[C@@H](c3ccc(C#CCC4CCCC4)cc3)[C@@H]2C1,6,-11
-2,CCC(=O)N(C)C[C@@H]1Oc2cc(-c3ccccc3C)ccc2S(=O)(=O)N([C@H](C)CO)C[C@@H]1C,-3,1.3
-1,CCC(=O)N1[C@H](C(=O)Nc2ccccc2)[C@@H](CO)[C@@H]2Cn3c(ccc(C4=CCCC4)c3=O)[C@@H]21,-1,0.3
5,COC(=O)C[C@@H]1CC[C@@H]2[C@@H](COc3ccc(NC(=O)NC(C)C)cc3C(=O)N2C)O1,3,1.1
5,Cc1noc(C)c1NC(=O)Nc1ccc2c(c1)C(=O)N([C@@H](C)CO)C[C@H](C)[C@@H](CN(C)Cc1ccc3c(c1)OCO3)OCCCC[C@@H](C)O2,2,3.4
0,CCCNC(=O)N1[C@H](CO)[C@H](c2ccccc2)C12CN(C(=O)CC1CC1)C2,-1,0.3
1,C[C@@H]1CN([C@H](C)CO)C(=O)c2ccccc2-c2ccccc2CO[C@H]1CN(C)S(=O)(=O)c1ccc([N+](=O)[O-])cc1,0,0.5
u,C[C@H]1CN([C@@H](C)CO)C(=O)c2c(c3ccccc3n2C)-c2ccccc2CO[C@@H]1CN(C)C(=O)[C@H]1CCCN1C,x,x
-2,C[C@H]1CN([C@@H](C)CO)C(=O)CCCn2nncc2CO[C@@H]1CN(C)C(=O)Nc1cccc(F)c1,-3,0.1
1,COCC(=O)N1[C@H](CO)[C@H](c2ccc(-c3cccc(F)c3)cc2)[C@@H]1C#N,2,-1.2
-1,C/C=C/c1ccc([C@@H]2[C@@H](CO)N(C(C)=O)[C@@H]2CNC(=O)c2ccccc2)cc1,2,-2.6
5,CN(C)C(=O)c1ccc(-c2ccc([C@H]3[C@@H](CO)N4CCCCN(CCC(F)(F)F)C[C@H]34)cc2)cc1,2,3.2
0,COc1ccc2c3c([nH]c2c1)[C@@H](CO)N(CC1CC1)CC31CN(C(=O)NC2CCCC2)C1,4,-5.0
-2,C[C@@H]1CN([C@H](C)CO)C(=O)Cc2cc(NC(=O)Nc3ccccc3)ccc2O[C@H]1CN(C)CC1CCCCC1,4,-5.7
-15*,CN(C)C(=O)[C@@H]1[C@@H](CO)[C@@H]2Cn3c(ccc(C4=CCCCC4)c3=O)[C@@H]2N1Cc1ccc2c(c1)OCO2,-26*,11*
13,O=C(C1CCC1)N1CC2(C1)[C@H](c1ccccc1)[C@H](CO)N2Cc1nccs1,11,2.3
8,C[C@@H]1CCCCO[C@@H](CN(C)S(=O)(=O)c2ccc(F)cc2)[C@@H](C)CN([C@H](C)CO)C(=O)c2cc(N(C)C)ccc2O1,23,-15
-3,CCC(=O)N1CC2(CCN(C(=O)Nc3ccccc3F)CC2)c2c([nH]c3cc(OC)ccc23)[C@@H]1CO,1,-4.0
4,COCC(=O)N1CC2(C1)[C@@H](c1ccc(-c3cccc(F)c3)cc1)[C@@H](CO)N2C(=O)COC,3,1.6
1,C[C@H](CO)N1C[C@H](C)[C@@H](CN(C)CC2CCCCC2)OCCCC[C@H](C)Oc2ccc(NS(C)(=O)=O)cc2C1=O,3,-1.9
4,CCCNC(=O)N1C[C@@H]2[C@H](c3ccccc31)[C@H](CO)N2Cc1ccccc1F,-5,9.0
0,C[C@@H]1CN([C@@H](C)CO)C(=O)c2cccc(NC(=O)CCCCCC(=O)Nc3ccccc3N)c2O[C@H]1CN(C)S(=O)(=O)c1cn(C)cn1,-3,3.7
0,Cc1noc(C)c1NC(=O)N(C)C[C@H]1Oc2c(NC(=O)c3cnccn3)cccc2C(=O)N([C@@H](C)CO)C[C@@H]1C,3,-3.1
2,CS(=O)(=O)N1[C@H](C#N)[C@@H](c2ccccc2)[C@@H]1CO,1,0.6
5,O=C(NCCCN1CCOCC1)[C@@H]1[C@@H](CO)[C@@H]2Cn3c(ccc(C4=CCCCC4)c3=O)[C@H]1N2,2,2.8
11,OC[C@H]1[C@H](c2ccc(-c3cccnc3)cc2)[C@H]2CN(CC3CC3)CCCCN21,-10,20
2,N#C[C@@H]1[C@H](c2ccc(C#Cc3ccccc3F)cc2)[C@H](CO)N1C(=O)c1cccnc1,0,1.8
-4,N#Cc1cccc(-c2ccc3c(c2)[C@@H]2[C@@H](CCN2S(=O)(=O)c2ccccc2)[C@@H](CO)N3)c1,12,-17
0,CC(C)CN(C[C@@H]1N[C@@H](CO)[C@H]1c1ccccc1)C(=O)CN(C)C,0,0.9

(list continues)
DUX4 txn inh,SMILES,DUX4 txn inh difference,DUX4 txn inh control
2,COc1ccc(S(=O)(=O)N(C)C[C@H]2Oc3ccc(NC(=O)NC4CCCCC4)cc3CC(=O)N([C@H](C)CO)C[C@H]2C)cc1,3,-1.7
0,CCCNC(=O)C[C@H]1CC[C@H]2[C@@H](COC[C@H](O)CN2Cc2cccc(F)c2)O1,3,-3.0
3,C[C@@H]1CN([C@@H](C)CO)C(=O)CCCn2cc(nn2)CO[C@@H]1CN(C)Cc1ccccc1,4,-1.2
6&16,COc1cccc(NC(=O)N2[C@@H]3CNC[C@H]2C3c2ccc(-c3ccncc3)cc2)c1 (some centres not stated),-11&20,17&-3.8
0,C[C@@H]1CCCCO[C@H](CN(C)S(=O)(=O)c2cn(C)cn2)[C@H](C)CN([C@@H](C)CO)C(=O)c2cc(NC(=O)Nc3ccc(C(F)(F)F)cc3)ccc2O1,-4,4.3
7,CCCNC(=O)N1CC2(CN(Cc3cccnc3)C2)c2c(n(C)c3cc(OC)ccc23)[C@@H]1CO,4,2.7
-2,COc1ccc(NC(=O)N2CCC3(CC2)CN(C(=O)C2CCC2)[C@@H](CO)c2c3c3ccc(OC)cc3n2C)cc1,-2,0.8
5,C[C@@H]1CN([C@H](C)CO)C(=O)c2cccc(NC(=O)C3CCOCC3)c2O[C@H]1CN(C)Cc1ccncc1,5,-0.2
1,CC(C)C(=O)Nc1ccc2c(c1)C(=O)N(C)[C@H]1CC[C@H](CC(=O)Nc3ccc(Cl)cc3)O[C@@H]1CO2,4,-3.1
0,COc1ccccc1C(=O)Nc1ccc2c(c1)OC[C@@H](C)N(CC1CC1)C[C@H](C)[C@H](OC)CN(C)C2=O,2,-2.4
2,C[C@@H]1CN([C@@H](C)CO)C(=O)CCCn2cc(nn2)CO[C@H]1CN(C)Cc1cccnc1,3,-1.4
3,C[C@H](CO)N1C[C@H](C)[C@@H](CN(C)C(=O)Cc2ccccc2)OCc2ccccc2-c2ccccc2C1=O,-2,5.0
-2,O=S(=O)(NC[C@H]1[C@@H](c2ccccc2)[C@@H](CO)N1CC1CC1)c1ccccc1,-1,-0.4
u,Cc1cccc(-c2ccc([C@H]3[C@@H](CO)N4CCCCN(S(=O)(=O)c5cccs5)C[C@@H]34)cc2)c1,x,x
u,O=C(c1ccc2c(c1)OCO2)N1CC[C@H]2[C@H](CO)Nc3ccc(-c4ccccc4)cc3[C@H]21,x,x
-18*!,CN(C)C(=O)c1cccc(-c2ccc(C3[C@@H]4CN(Cc5ccccc5F)C[C@H]3N4)cc2)c1 (some centres not stated),-26*,8.5*
1,CO[C@H]1CN(C)C(=O)c2ccc(NS(=O)(=O)c3ccc(C)cc3)cc2OC[C@@H](C)N(Cc2nccs2)C[C@@H]1C,2,-1.2
0,CN1C(=O)c2cc(NC(=O)c3cnccn3)ccc2OC[C@H]2O[C@@H](CC(=O)N[C@@H]3CCN(Cc4ccccc4)C3)CC[C@@H]21,0,-0.6
3,CCC(=O)N1[C@H](CO)[C@@H]2c3ccccc3N(C(=O)CC(F)(F)F)C[C@@H]21,5,-2.1
-3,C/C=C/c1ccc2c(c1)O[C@H](CN(C)C(=O)c1ccccn1)[C@@H](C)CN([C@@H](C)CO)S2(=O)=O,-3,0.7
0,O=C(C1CC1)N1C[C@H]2[C@@H](c3ccccc31)[C@H](CO)N2C(=O)c1cccc(F)c1,1,-1.0
-2,CNC(=O)C[C@H]1CC[C@H]2[C@@H](COc3ccc(NC(=O)c4cccc(OC)c4)cc3C(=O)N2C)O1,-2,0.2

A portion of the library, so the mix of outcomes need not match the whole.
